Screens deposited in PubChem BioAssay by Southern Research Institute.
Mtb H37Rv = Confirmatory growth inhibition assay against Mycobacterium tuberculosis H37Rv, potency (AID 1949); inhibition, % at 10 µg/mL; hits with a dose series show IC50 in µg/mL; 1.6% of 100,000 active; most inactive calls were filed without a number and no value below 0 was filed;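 active = confirmed in a dose series; inconclusive = about 50% or more but not retested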;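 also: bacteria grown 7 days with compound before Alamar blue readout; 0% = untreated bacteria and 100% = reference antibiotic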
* = called active by the depositor; i = inactive; ? = inconclusive.

SMILES | Mtb H37Rv
COC(=O)CN1C(=S)N(c2ccc(OC)cc2)C(=O)C1CC(=O)Nc1ccc(OC)cc1 (stereo unspecified) | i
O=C(Nc1ccccc1C(=O)N1CCOCC1)c1ccc(CN2CCOCC2)cc1 | i
COc1ccc(C(=O)c2ccc(Cl)cc2)cc1 | i
O=C(Nc1cccc(Cn2cccn2)c1)c1cc2c(s1)CCCC2 | 17.7%
COc1cc([N+](=O)[O-])ccc1NC(=S)Nc1ccc(C)cc1OC(F)F | 0.3%
O=S(=O)(Nc1ccccc1O)c1ccccc1 | i
Cc1cc(NC(=O)CSc2nc3c(c(-c4cccnc4)c2C#N)CCC3)no1 | 2.3%
O=S(=O)(c1ccc(Br)cc1)N(Cc1ccc(F)cc1)Cc1ccco1 | 5.2%
COc1ccccc1C(=O)CC1(O)C(=O)Nc2ccccc21 (stereo unspecified) | i
COc1ccc(NC(=S)NCCN2CCC(C)CC2)cc1Cl | i
COc1cc(C)c(C(C)C)cc1S(=O)(=O)N1CCN(c2cccc(Cl)c2)CC1 | i
CCCN(CCC)S(=O)(=O)c1ccc(NC(=O)c2cccs2)cc1 | i
CCOc1ccc(CNc2ccc(S(N)(=O)=O)cc2)cc1 | i
Cc1ccc(C)c(S(=O)(=O)NCC(=O)Nc2nsc(-c3ccccc3)n2)c1 | 1.9%
CCOc1ccc(N(CC(=O)NCc2ccccc2)S(=O)(=O)c2ccc(F)cc2)cc1 | i
Cc1ccc(S(=O)(=O)N2C(=O)CCC2C(=O)Nc2cccc(Cl)c2C)cc1 (stereo unspecified) | i
Cc1ccc(C(=O)NCc2ccc(Cl)c(Cl)c2)cc1 | i
Cc1c(C(C)NC(=O)COc2ccc(Br)cc2Cl)cnn1C (stereo unspecified) | 1.0%
COC(=O)c1c(NC(=O)c2cccc(Cl)c2)sc2c1CCCCC2 | i
COc1ccc(C(=O)NC(=S)N2CC(C)OC(C)C2)cc1 (stereo unspecified) | i
Cc1cc(I)ccc1NC(=O)COc1ccc(-c2ccccc2)cc1 | i
CCOc1ccccc1NC(=O)c1ccc(N(Cc2ccccc2C)S(C)(=O)=O)cc1 | 0.7%
O=[N+]([O-])c1ccc(OCc2nc(-c3ccc(Br)cc3)no2)cc1 | i
C#CCSc1nc(-c2ccccc2)c2cc(Cl)ccc2n1 | i
CCOC(=O)c1ccccc1NC(=O)CC1Nc2cc(C)c(C)cc2NC1=O (stereo unspecified) | i
O=C(O)c1ccc(NS(=O)(=O)c2ccc(Cl)c(Cl)c2)cc1 | i
COc1ccc(OC)c(NC(=O)Cn2cnc3sc(C)c(-c4ccccc4)c3c2=O)c1 | i
O=C(c1cccc(S(=O)(=O)N2CCCCC2)c1)N1CCN(c2ccccc2)CC1 | 0.3%
COc1ccc(-n2nnnc2SCC(=O)c2ccc(Br)cc2)cc1 | i
Cc1cc(NC(=O)c2cc(-n3cnnc3)ccc2Cl)no1 | i
CC(=O)c1ccc(NC(=S)NNC(=O)c2cc(Br)ccc2O)cc1 | i
Cc1ccccc1OCc1nc2ccccc2n1C | i
Cc1cccc(NC(=O)c2ccccc2OCC(=O)NC2CCCCC2)c1C | i
Cc1nc(SCC(=O)Nc2oc(-c3ccccc3)c(-c3ccccc3)c2C#N)nc2c1CCCC2 | i
CCCCOc1ccccc1C1C(C(=O)OC)=CN(c2ccccc2)C=C1C(=O)OC | 1.2%
CCOc1ccc2c(c1)=C(c1sc(=S)n(Cc3ccccc3)c1O)C(=O)N=2 | i
CCSc1nnc(NC(=O)c2ccc(Br)c(S(=O)(=O)N3CCCC3)c2)s1 | i
Cc1ccc(-c2cn(S(=O)(=O)c3ccc(Cl)cc3)nc2N)cc1F | i
CCOc1ccc(C(Nc2ccccn2)c2ccc3ccc(C)nc3c2O)cc1OC (stereo unspecified) | i
O=C(CN1CCN(Cc2ccccc2)CC1)Nc1ccccc1F | i
O=C(c1cccs1)N(Cc1cc2ccccc2[nH]c1=O)CC1CCCO1 (stereo unspecified) | i
CCC(=O)Nc1cccc2cccnc12 | 16.9%
O=C(CSc1nc2scc(-c3ccccc3)c2c(=O)n1-c1ccccc1)NCC1CCCO1 (stereo unspecified) | i
COc1ccc(OC)c(C2NC(=O)NC(C)=C2C(=O)Nc2ccccc2F)c1 (stereo unspecified) | i
Cc1ccccc1C(=O)Nc1c(C)[nH]c(=O)[nH]c1=O | 0.5%
Cc1cc(C(=O)Nc2c(C)n(C)n(-c3ccccc3)c2=O)cs1 | i
Cc1ccccc1NC(=O)c1csc2c1CCCC2 | i
CSc1ccccc1NC(=O)c1cc2n(n1)C(C(F)(F)F)CC(c1ccco1)N2 (stereo unspecified) | 1.6%
O=C(O)C(Cc1c[nH]c2ccccc12)Nc1ncnc2sc3c(c12)CCC3 (stereo unspecified) | i
COc1ccc2oc(-c3cccc(NC(=O)COc4ccc(Cl)cc4)c3)nc2c1 | i
CCC(C)NCCCOc1ccc(Cl)c2ccccc12 (stereo unspecified) | 2.06µg/mL*
Cc1ccc(-c2csc(NC(=O)CCCC(=O)O)n2)c(C)c1 | i
CCc1nnc(NC(=O)C2CCCN2S(=O)(=O)c2ccccc2)s1 (stereo unspecified) | i
CCN(CC)S(=O)(=O)c1c(C)c(C)cc(C)c1C | i
COc1cccc(NC(=S)N2CC(C)OC(C)C2)c1 (stereo unspecified) | i
COc1ccc(OC)c(NC(=S)NC(NC(=O)c2ccc(Br)cc2)C(Cl)(Cl)Cl)c1 (stereo unspecified) | 3.0%
COc1ccc(S(=O)(=O)N(CC(=O)Nc2ccc(S(=O)(=O)N3CCOCC3)cc2)c2ccc(F)cc2)cc1OC | i
Cc1cccc(CC2CC(=O)N(c3ccc(Oc4ccccc4)cc3)C2=O)c1 (stereo unspecified) | i
CCc1cc(=O)oc2cc(OC(=O)c3ccc(Cl)cc3Cl)c(Cl)cc12 | i
Cc1ccccc1C(=O)Nc1cccc(Oc2ccc3c(c2)C(=O)NC3=O)c1 | i

As a short view, part of the list above.
SMILES | Mtb H37Rv
CCc1cc(=O)oc2cc(OC(=O)c3ccc(Cl)cc3Cl)c(Cl)cc12 | i
Cc1ccccc1C(=O)Nc1cccc(Oc2ccc3c(c2)C(=O)NC3=O)c1 | i

Molecules listed so far containing a cyano group (two):
SMILES | Mtb H37Rv
Cc1cc(NC(=O)CSc2nc3c(c(-c4cccnc4)c2C#N)CCC3)no1 | 2.3%
Cc1nc(SCC(=O)Nc2oc(-c3ccccc3)c(-c3ccccc3)c2C#N)nc2c1CCCC2 | i

(more compounds)
SMILES | Mtb H37Rv
CC1CC(C)(C)Nc2ccc(OC(=O)C(C)N3C(=O)c4ccccc4C3=O)cc21 (stereo unspecified) | 45.4%
N#CC1=C(SCC(=O)Nc2ccccc2[N+](=O)[O-])NC(=O)CC1c1ccc(F)cc1 (stereo unspecified) | 6.76µg/mL*
Cc1cc(C)cc(NC(=S)N2CCN(c3cccc(Cl)c3)CC2)c1 | i
Brc1ccccc1Nc1nc(-c2cccs2)cs1 | i
C#CCOc1ccc(C=O)cc1Br | i
Cc1cc(C)n(C(=O)c2ccc(NC(=O)C3CC3)cc2)n1 | i
Cn1c(=O)[nH]c(=O)c2c1nc(N)n2Cc1ccccc1 | i
CC(C)CNC(=O)c1c(NC(=O)c2ccccc2F)sc2c1CCC2 | i
Cc1occc1C(=O)N1CCN(S(C)(=O)=O)CC1 | i
CCOc1ccc(CN2CCN(Cc3ccc(CC)cc3)CC2)cc1 | i
Cc1cc(C)nc(/N=C(/N)N(C)C2CCCCC2)n1 | i
CS(=O)(=O)N(CC(=O)Nc1ccc(C(F)(F)F)cc1)c1ccccc1F | i
Nc1nc2ccccc2n1CCOc1ccc(F)cc1 | ?
COc1ccc(C(=O)O/N=C2/C(=O)N(C)c3ccccc32)cc1 | i
O=C(Nc1ccc(Sc2ccc(Cl)cc2)cc1)c1ccccc1[N+](=O)[O-] | ?
NC(=O)CCSc1nnc(SCC(=O)c2ccccc2)s1 | i
Cc1ccc(C(=O)Nc2cccc(C)c2C)cc1I | i
COc1ccccc1NC(=O)CN(Cc1ccc(C)cc1)S(=O)(=O)c1ccc(Br)cc1 | i
COc1ccc(CSCC(=O)Nc2ccc(S(=O)(=O)N3CCCC3)cc2)cc1 | i
CCOC(=O)c1c(NC(=O)c2ccccc2C)sc(C(=O)Nc2ccccc2OC)c1C | i

Given with tabs: 5 of the compounds above
mol	Mtb H37Rv
COc1ccc(C(=O)O/N=C2/C(=O)N(C)c3ccccc32)cc1	i
O=C(Nc1ccc(Sc2ccc(Cl)cc2)cc1)c1ccccc1[N+](=O)[O-]	?
NC(=O)CCSc1nnc(SCC(=O)c2ccccc2)s1	i
Cc1ccc(C(=O)Nc2cccc(C)c2C)cc1I	i
COc1ccccc1NC(=O)CN(Cc1ccc(C)cc1)S(=O)(=O)c1ccc(Br)cc1	i

Next records follow.
SMILES | Mtb H37Rv
O=C(O)C1C2C=CC(O2)C1C(=O)NCc1ccncc1 (stereo unspecified) | i
CCn1c(C(C)(C)C)nc2ccccc21 | 0.1%
c1ccc(-c2nc3sc4c(c3c3nncn23)CCC4)cc1 | i
CCOc1cc(C)c(S(=O)(=O)N2CCN(c3cc(Cl)ccc3C)CC2)cc1C | i
C=CCN(CC=C)C(=S)Nc1cccc(C(C)=O)c1 | i
O=C(Cc1ccccc1)N1CCN(Cc2ccccn2)CC1 | i
CC1(C)CN=C(NCc2cccnc2)S1 | 1.1%
C=CCOc1cccc(CNC2CCCCC2)c1 | i
COc1ccc(Cl)cc1N(CC(=O)Nc1cccc(C)c1C)S(C)(=O)=O | i
Cc1ccc(OCCCN2C(=O)NC(C)(C)C2=O)c(I)c1 | 1.8%
COc1ccccc1OCCOCCOc1ncnc2ccccc12 | i
NC(=O)CSc1nnnn1C1CCCCC1 | i
O=C(Nc1cccc2c1CCCC2)c1ccc([N+](=O)[O-])cc1Cl | i
CC1CN(C2CCN(Cc3cccnc3)CC2)CC(C)O1 (stereo unspecified) | i
Fc1ccc(-c2ccc(-c3nn4c(Cc5ccccc5)nnc4s3)o2)cc1 | 4.3%
CCCCNCCOCCOc1ccc(Cl)cc1Br | i
COc1ccccc1NC(=S)NC1CCCCCC1 | i
Cc1ccc(OCc2nnc(SCC(=O)c3ccc(Br)cc3)o2)cc1 | i
Cc1cc(OCc2ccc(F)cc2)c2c(C)cc(=O)oc2c1 | 7.2%
COc1c(C)cccc1C(=O)NC(=S)Nc1ccc(-c2cc3ccccc3oc2=O)cc1 | i
COc1ccc(C(=O)COc2ccc(NC(=O)c3ccccc3Cl)cc2)cc1 | 20.4%
CCOC(=O)c1ccc(NC(=S)N2CCCC(C(=O)OCC)C2)cc1 (stereo unspecified) | 1.0%
CSc1ccccc1C(=O)Nc1cccc([N+](=O)[O-])c1 | 0.5%
CCOc1ccc(NC(=O)C2C3/C=C\CCCCC32)cc1 (stereo unspecified) | 3.0%
COc1ccc(NC(=O)Nc2cc(F)ccc2C)cc1 | i
COc1ccc(OC)c(CN2CCC(N3CCCC(C)C3)CC2)c1 (stereo unspecified) | i
COc1ccc(-c2csc3ncnc(SCC(=O)Nc4nc(-c5ccccc5)ns4)c23)cc1 | i
Cc1ccccc1OCC(O)Cn1c(=N)n(CCN2CCCCC2)c2ccccc21 (stereo unspecified) | ?
N=c1n(CCO)c2ccccc2n1CCOc1ccc(Br)cc1 | i
Cc1ccc(Cl)c(OCC(=O)NCc2cccs2)c1 | 6.4%
O=C(Cc1ccccc1)NCCCNC(=O)Cc1ccccc1 | i
CCOC(=O)c1c(NC(=S)N2CCOCC2)sc2c1CCCC2 | i
COC(=O)C(C)Oc1ccc2c(c1)oc(=O)c1ccccc12 (stereo unspecified) | ?
O=C(CSc1nnc(-c2ccccc2)o1)Nc1ccc2ccccc2c1 | 1.02µg/mL*
COCc1cc(C)nc(NC2CCCCC2)c1C#N | i
CC(NC(=O)Cc1ccccc1)c1ccc2c(c1)OCCO2 (stereo unspecified) | i
O=C(Nc1cccc2ccccc12)N1CC=C(c2ccccc2)CC1 | 2.5%
Cc1c(Cl)ccc(OCCN(C)C)c1C | i
COc1ccc(NC(=S)N2CCCCC2C)c(OC)c1 (stereo unspecified) | i
CC(C)C(C(=O)Nc1cc(C(F)(F)F)ccc1Cl)N1C(=O)c2ccccc2C1=O (stereo unspecified) | i

By substructure, the compounds so far containing a furan ring, fused or not.
SMILES | Mtb H37Rv
O=S(=O)(c1ccc(Br)cc1)N(Cc1ccc(F)cc1)Cc1ccco1 | 5.2%
Cc1nc(SCC(=O)Nc2oc(-c3ccccc3)c(-c3ccccc3)c2C#N)nc2c1CCCC2 | i
CSc1ccccc1NC(=O)c1cc2n(n1)C(C(F)(F)F)CC(c1ccco1)N2 (stereo unspecified) | 1.6%
Cc1occc1C(=O)N1CCN(S(C)(=O)=O)CC1 | i
Fc1ccc(-c2ccc(-c3nn4c(Cc5ccccc5)nnc4s3)o2)cc1 | 4.3%

New compounds follow:
SMILES | Mtb H37Rv
COc1ccc(NC(=O)C23CCC(C)(C(=O)C2)C3(C)C)cc1 (stereo unspecified) | i
O=C(Nc1ccc(N2CCN(Cc3ccccc3)CC2)cc1)c1ncn[nH]1 | i
CCOc1ccc(C(=O)NCc2ccncc2)cc1OCC | i
Cc1ccc(OCC(=O)NC(C)C)c(C)c1 | i
COc1ccccc1C(=O)Nc1nnc(SCC(=O)N2CCCCC2)s1 | i
COc1ccc(Cl)cc1N(CC(=O)Nc1ccc(F)cc1F)S(C)(=O)=O | i
C=CCOc1ccc(CNCc2cccnc2)cc1OC | i
O=C(CSc1nnc(-c2ccccc2)n1-c1ccccc1)Nc1ccc(C(F)(F)F)cc1 | i
Cc1cc(C(C)(C)C)ccc1OCC(=O)N=Nc1c(O)[nH]c2ccccc12 | 31.4%
O=C1CCCC2=C1C(c1ccc(Cl)cc1)N=C(Nc1nc3ccccc3o1)N2 (stereo unspecified) | i
COCC(=O)n1nc(-c2ccccc2)nc1NCc1ccco1 | 5.0%
O=C(CSc1n[nH]c(-c2ccncc2)n1)Nc1ccc(Br)cc1 | i
O=C(C1CCN(Cc2ccccc2O)CC1)N1CCN(c2ccccc2F)CC1 | i
Cc1ccc(C(=O)Nc2ccc([N+](=O)[O-])cc2C)cc1I | <0.1µg/mL*
Cc1c(CO)c2ccccc2n1Cc1ccccc1C#N | 0.2%

Some of the compounds tested, so the mix of outcomes need not match the whole.
